YopH inh = YopH (Yersinia) phosphatase inhibition; 140,000 tested, 0.16% active; inhibition, %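 (about 10 µM by stock and volumes)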; fluorescence Ex485/Em525;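 active = inhibition of 50% or more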;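 also: controls were vehicle for no effect and minimum signal wells for full effect; inactives centre near -20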
Mtb H37Rv = M. tuberculosis H37Rv growth inhibitors, H37Rv strain (AID 1626); inhibition, % at 10 µM, or IC50 in µM where a hit was titrated; M. tuberculosis H37Rv growth inhibition; higher % means a stronger effect; 220,000 tested, 0.95% active;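 active = confirmed in a dose series; inconclusive = inhibition above 80% but not taken into the dose series; inactive = below 80% or under 30% at every dose of the series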;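 also: bacteria incubated seven days before Alamar blue readout; 0% = bacteria only wells and 100% = bacteria with antibiotic wells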
RecA intein inh = inhibitors of M. tuberculosis RecA intein splicing. P9WHJ3. 290,000 tested, 0.75% active. AID 2221. cell-free RecA intein splicing, fluorescence. inhibition, %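 (about 9 µM by stock and volumes)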; in the data active = inhibition above about 30%; inconclusive = no clear call, values can overlap the other calls;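 also: 0% = vehicle wells and 100% = reference inhibitor control wells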
Target sequence (P9WHJ3 whole entry, looked up): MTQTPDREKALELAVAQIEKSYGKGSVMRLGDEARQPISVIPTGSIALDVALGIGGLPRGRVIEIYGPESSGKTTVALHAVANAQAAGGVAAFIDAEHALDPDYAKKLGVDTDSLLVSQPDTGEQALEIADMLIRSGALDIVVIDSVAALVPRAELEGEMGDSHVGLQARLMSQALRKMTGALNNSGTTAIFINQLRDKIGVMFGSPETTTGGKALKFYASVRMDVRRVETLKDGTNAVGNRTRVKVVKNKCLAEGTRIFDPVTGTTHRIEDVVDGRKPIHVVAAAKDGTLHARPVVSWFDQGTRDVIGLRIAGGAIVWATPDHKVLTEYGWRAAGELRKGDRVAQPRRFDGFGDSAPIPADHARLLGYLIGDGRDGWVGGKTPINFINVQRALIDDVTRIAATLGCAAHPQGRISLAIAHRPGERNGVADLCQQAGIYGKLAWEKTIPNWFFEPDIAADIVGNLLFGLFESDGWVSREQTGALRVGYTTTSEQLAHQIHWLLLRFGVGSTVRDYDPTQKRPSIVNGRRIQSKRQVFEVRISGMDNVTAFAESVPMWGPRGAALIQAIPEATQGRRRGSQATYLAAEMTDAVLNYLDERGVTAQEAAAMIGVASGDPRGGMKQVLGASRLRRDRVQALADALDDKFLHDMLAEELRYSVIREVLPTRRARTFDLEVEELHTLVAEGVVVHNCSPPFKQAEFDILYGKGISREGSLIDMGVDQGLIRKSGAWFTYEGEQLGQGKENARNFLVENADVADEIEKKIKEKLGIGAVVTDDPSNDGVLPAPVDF
Arbovirus anti = blocks arbovirus infection; arbovirus infection cell-based antiviral screen; inhibition, % at 10 µM; 200,000 tested, 0.37% active; AID 1251;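 active = inhibition from about 30%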;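 also: bluetongue infection of BSR cells; cell survival read as ATP light after 72 h; 0% = infected wells without compound and 100% = uninfected wells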
Mtb betalactam = beta-lactam sensitization of Mtb H37Rv; M. tuberculosis H37Rv growth with meropenem, percent inhibition; hits of this screen are not shown here; inhibition, % at 25 µM; 330,000 tested, 0.27% active; AID 434955;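 active = about 74% or more and at least 40 points above the plate without the antibiotic, then above 30% in a dose series; inconclusive = first-round hits that could not be retested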;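 also: growth measured after seven days incubation then overnight dye step; 0% = bacteria only wells and 100% = bacteria with antibiotic; twin plates without the antibiotic show which effects depend on it; some results filed as inactive read as strong as hits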
Arbovirus anti repeat = also measured in Arbovirus anti; calls as there; inhibition, %; measured here: 10K subset replicate screen; many hits read low in the repeat;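 first of two repeat runs on a subset; 0% = infected and 100% = uninfected wells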
* = called active by the depositor. Only part of the results is shown (hit frequency here may not be typical).

The opening 6 records (preview)
C/C(=N\NC(=O)C1COc2ccccc2O1)c1ccc(C)o1 (stereo unspecified) was read as YopH inh -20, Mtb H37Rv -7%, RecA intein inh 6.4, Arbovirus anti -1 and Mtb betalactam -6.
CCOC(=O)C(C(=O)N(C)C)c1ncc(C(F)(F)F)cc1Cl (stereo unspecified) was read as YopH inh -35, Mtb H37Rv -4%, RecA intein inh 5.8, Arbovirus anti -1 and Mtb betalactam -16.
Screening CSc1nc(N)c(C#N)c(-c2ccc(Cl)cc2)c1C#N returned YopH inh -34, Mtb H37Rv 8%, RecA intein inh 0.7, Arbovirus anti -19 and Mtb betalactam 2.
For N#Cc1ccc(/C=C(\C(=O)C(=O)O)c2ccc3ccccc3n2)cc1 the results were RecA intein inh -9.7 and Mtb betalactam -5.
Screening CCOc1ccc(C2C(C#N)=C(N)N(c3sc4c(c3C#N)CCCC4)C3=C2C(=O)CCC3)cc1 (stereo unspecified) returned YopH inh -38, Mtb H37Rv 6%, RecA intein inh -5.5, Arbovirus anti 10 and Mtb betalactam 8.
Cc1cccc(NC(=O)CSc2nnc(-c3cnccn3)n2Cc2ccco2)c1 was read as YopH inh -13, Mtb H37Rv -1%, RecA intein inh 4.0, Arbovirus anti -1 and Mtb betalactam -3.

This part in full, from the start:
C/C(=N\NC(=O)C1COc2ccccc2O1)c1ccc(C)o1 (stereo unspecified) was read as YopH inh -20, Mtb H37Rv -7%, RecA intein inh 6.4, Arbovirus anti -1 and Mtb betalactam -6.
CCOC(=O)C(C(=O)N(C)C)c1ncc(C(F)(F)F)cc1Cl (stereo unspecified) was read as YopH inh -35, Mtb H37Rv -4%, RecA intein inh 5.8, Arbovirus anti -1 and Mtb betalactam -16.
Screening CSc1nc(N)c(C#N)c(-c2ccc(Cl)cc2)c1C#N returned YopH inh -34, Mtb H37Rv 8%, RecA intein inh 0.7, Arbovirus anti -19 and Mtb betalactam 2.
For N#Cc1ccc(/C=C(\C(=O)C(=O)O)c2ccc3ccccc3n2)cc1 the results were RecA intein inh -9.7 and Mtb betalactam -5.
Screening CCOc1ccc(C2C(C#N)=C(N)N(c3sc4c(c3C#N)CCCC4)C3=C2C(=O)CCC3)cc1 (stereo unspecified) returned YopH inh -38, Mtb H37Rv 6%, RecA intein inh -5.5, Arbovirus anti 10 and Mtb betalactam 8.
Cc1cccc(NC(=O)CSc2nnc(-c3cnccn3)n2Cc2ccco2)c1 was read as YopH inh -13, Mtb H37Rv -1%, RecA intein inh 4.0, Arbovirus anti -1 and Mtb betalactam -3.
Nc1nc(NC(=O)/C=C\C(=O)O)nn1-c1ccccc1 was read as Mtb H37Rv -9%, RecA intein inh -0.3, Arbovirus anti 5 and Mtb betalactam 2.
Cc1ccccc1S(=O)(=O)Cc1ccc(C(=O)NC2CCCCC2)o1 was read as RecA intein inh 1.3 and Mtb betalactam -1.
`Clc1ccc(-c2cnc3ccccc3n2)cc1` gave YopH inh -35, Mtb H37Rv 4%, RecA intein inh 0.9, Arbovirus anti -2 and Mtb betalactam 1.
CNC(=O)/C(C#N)=C/c1ccc(-c2ccc(Cl)cc2)o1 was read as Mtb H37Rv inconclusive, RecA intein inh -9.9, Arbovirus anti 3 and Mtb betalactam 10.
For CSC(C1CCCC1)n1nnc2ccccc21 (stereo unspecified) the results were RecA intein inh 2.8 and Mtb betalactam 56.
For O=C(Nc1nc2cc3c(cc2s1)OCCO3)c1ccc(N2C(=O)CCC2=O)cc1 the results were Mtb H37Rv -7%, RecA intein inh -3.3 and Mtb betalactam 2.
`O=C(O)Cc1ccc(NC(=O)Nc2ccc3c(c2)OCO3)cc1` gave RecA intein inh -0.7 and Mtb betalactam 1.
Screening CCCCOC(=O)CSc1n[nH]c(=O)[nH]c1=O returned YopH inh -26, Mtb H37Rv -5%, RecA intein inh 0.4, Arbovirus anti 8 and Mtb betalactam inconclusive.
Screening CC12CCCCC1NS(=O)(=O)OC2 (stereo unspecified) returned RecA intein inh 0.9 and Mtb betalactam -6.
For Cc1cc(C)n2nc(SCC(=O)Nc3ccc(F)cc3)nc2n1 the results were YopH inh -53, Mtb H37Rv -3%, RecA intein inh 1.5, Arbovirus anti 2, Mtb betalactam -10 and Arbovirus anti repeat 7.
Screening Cn1c(=O)n(C)c2cc(CNc3ccc(N4CCOCC4)c(C(=O)O)c3)ccc21 returned YopH inh -33, Mtb H37Rv -3%, RecA intein inh 5.9 and Arbovirus anti -1.
Screening CCCNc1c(NS(=O)(=O)c2ccc(C(C)(C)C)cc2)c(=O)oc2ccccc12 returned RecA intein inh 2.0 and Mtb betalactam 1.
O=C(/C=C1\NCC2c3ccccc3CCN2C1=O)c1ccccc1 (stereo unspecified) was read as YopH inh 17, Mtb H37Rv -9%, RecA intein inh -89, Arbovirus anti -7 and Mtb betalactam -4.
`C=CCn1c(SCC(=O)Nc2ccc3c(c2)OCO3)nnc1-c1ccccc1O` gave YopH inh -10, Mtb H37Rv -3%, RecA intein inh 1.5, Arbovirus anti -14 and Mtb betalactam -7.
CC1=C(C(=O)OCc2ccccc2)C(c2ccccc2OS(=O)(=O)c2ccc([N+](=O)[O-])cc2)NC(=O)N1CCCC(=O)O (stereo unspecified) was read as Mtb H37Rv 4%, RecA intein inh 0.2 and Mtb betalactam 2.
Screening Cc1cc(C)nc(CCNC(=O)CC2C(=O)NCCN2Cc2ccccc2)n1 (stereo unspecified) returned RecA intein inh -2.6 and Mtb betalactam -8.
For CC(=O)N1CCc2cc(N=NC3=C(O)CC(C)(C)CC3=O)ccc21 the results were Mtb H37Rv -2%, RecA intein inh -2.2, Arbovirus anti -2 and Mtb betalactam 54.
Screening Cc1cccc(NC(=O)CC2(CC(=O)O)CCCC2)c1 returned RecA intein inh 0.5 and Mtb betalactam 4.
For CCC1(C)Cc2c(sc3nc(NC)n(C)c(=O)c23)CO1 (stereo unspecified) the results were YopH inh -37, RecA intein inh -2.9, Arbovirus anti 1 and Mtb betalactam 12.
Screening Cc1ccc(C)c(N(CC(=O)Nc2cc(Cl)ccc2Oc2ccccc2)S(C)(=O)=O)c1 returned YopH inh -34, Mtb H37Rv 6%, RecA intein inh 7.9, Arbovirus anti -13 and Mtb betalactam 8.
Screening O=C(/C=C/c1ccc(Cl)cc1)N(Cc1ccccc1)c1ccccn1 returned Mtb H37Rv 13%, RecA intein inh -0.2, Arbovirus anti -24 and Mtb betalactam 8.
For CCn1cc(C(=O)NCc2ccncc2)c(=O)c2cc(F)c(N3CCN(C(=O)c4ccco4)CC3)cc21 the results were Mtb H37Rv 10%, RecA intein inh -2.2 and Mtb betalactam 9.
Screening O=C(NNC(=O)c1cccs1)c1ccc(Cl)c(Cl)c1 returned YopH inh -27, Mtb H37Rv -1%, RecA intein inh -3.4, Arbovirus anti -11 and Mtb betalactam -3.
For COC(=O)c1[nH]c2ccccc2c1NC(=O)/C=C/c1ccc2c(c1)OCO2 the results were YopH inh -22, Mtb H37Rv -6%, RecA intein inh 1.8, Arbovirus anti 3 and Mtb betalactam 8.
Cn1c(=O)c2c(-c3ccccc3)n(N3CCOCC3)cc2n(C)c1=O was read as YopH inh -19, Mtb H37Rv -1%, RecA intein inh 1.2, Arbovirus anti 5 and Mtb betalactam 3.
`C=CCN1C(=O)CN=C1Nc1ccccc1` gave YopH inh -32, Mtb H37Rv -5%, RecA intein inh -0.2, Arbovirus anti 7 and Mtb betalactam 2.
`O=C(OC1CCN(c2ccc([N+](=O)[O-])cc2)CC1)c1ccccc1` gave YopH inh -18, Mtb H37Rv 1%, RecA intein inh 0.3, Arbovirus anti 8 and Mtb betalactam 6.
`Cc1ccc(S(=O)(=O)N2CCOCC2)cc1C(=O)Nc1ccccn1` gave YopH inh -34, Mtb H37Rv -4%, RecA intein inh 3.7, Arbovirus anti 6 and Mtb betalactam -4.
Screening CNc1nc(N)c([N+](=O)[O-])c(Nc2ccccc2OC)n1 returned RecA intein inh -1.1 and Mtb betalactam 5.
Screening O=C(Cn1c(C(=O)NCc2ccco2)cc2sccc21)c1ccccc1 returned YopH inh -2, RecA intein inh 6.4, Arbovirus anti 0 and Mtb betalactam 29.
For COc1ccc(CCNC(=O)C2CCCN(S(=O)(=O)c3ccc(F)cc3)C2)cc1 (stereo unspecified) the results were RecA intein inh -0.5 and Mtb betalactam -10.
`COc1cccc(-c2n[nH]c(=S)n2Cc2ccco2)c1OC` gave YopH inh -32, Mtb H37Rv -3%, RecA intein inh 1.0, Arbovirus anti 8 and Mtb betalactam inconclusive.
Screening O=C(CCn1nnc2ccccc21)N1CCC(O)(c2cccc(F)c2)CC1 returned YopH inh -41, Mtb H37Rv 1%, RecA intein inh 1.4, Arbovirus anti 1, Mtb betalactam -6 and Arbovirus anti repeat 8.
`O=C(OCCN1CCCCC1)c1ccccc1Br` gave RecA intein inh 3.8 and Mtb betalactam -9.
For O=C(Cc1cccs1)Nc1ccc(F)cc1 the results were RecA intein inh 1.0 and Mtb betalactam 3.
For Cc1cc(NC(=O)CSc2nc3sc(C)c(C)c3c(=O)n2C2CCCC2)no1 the results were YopH inh 7, Mtb H37Rv -5%, RecA intein inh -0.5, Arbovirus anti -2 and Mtb betalactam -6.
`NS(=O)(=O)c1ccc(NC(=O)CN2C(=O)c3ccccc3C2=O)cc1` gave Mtb H37Rv -1%, RecA intein inh -3.5 and Mtb betalactam -4.
For CC1=C(C(=O)N2CCOCC2)C(c2ccc(OC(F)F)cc2)NC(=S)N1c1ccccc1 (stereo unspecified) the results were Mtb H37Rv 4%, RecA intein inh 10, Arbovirus anti 3 and Mtb betalactam -13.
Screening CN1CCN(CC(=O)N/N=C\c2c[nH]c3ccccc23)CC1 returned YopH inh -7, Mtb H37Rv 5%, RecA intein inh -0.1, Arbovirus anti -4 and Mtb betalactam -1.
Screening COC(=O)c1ccc(NC(C)C(=O)OC)c([N+](=O)[O-])c1 (stereo unspecified) returned YopH inh -6, Mtb H37Rv 1%, RecA intein inh 3.7, Arbovirus anti -1 and Mtb betalactam -4.
Screening COC(=O)c1ccc(C(=O)NC2CCCc3c2cnn3-c2cc(F)cc(F)c2)nc1 (stereo unspecified) returned RecA intein inh -1.5 and Mtb betalactam 98.
For Cc1ccc2c(c1)c1c(n2CC(O)Cn2nc(C)c(Br)c2C)CCCC1 (stereo unspecified) the results were YopH inh -6, Mtb H37Rv 0%, RecA intein inh 14, Arbovirus anti -37 and Mtb betalactam 10.
Screening O=[N+]([O-])c1ccccc1Oc1ncccc1[N+](=O)[O-] returned Mtb H37Rv 10%, RecA intein inh -7.0, Arbovirus anti 20 and Mtb betalactam 2.
CC(C)Cn1c(SCC(=O)N2CCCCC2)nc2ccccc2c1=O was read as YopH inh -4, Mtb H37Rv 10%, RecA intein inh 4.0, Arbovirus anti -15 and Mtb betalactam 2.
CCOC(=O)C1=C(C)NC(=S)NC1c1ccc(OC(=O)c2ccco2)cc1 (stereo unspecified) was read as YopH inh -13, Mtb H37Rv 12%, RecA intein inh 27, Arbovirus anti 3 and Mtb betalactam -7.
COc1ccccc1N=C1SC(C(=O)Nc2ccc(F)cc2)CC(=O)N1C (stereo unspecified) was read as YopH inh 39, Mtb H37Rv -10%, RecA intein inh 0.8, Arbovirus anti 6 and Mtb betalactam 4.
CCOCCSc1nc2c(c(-c3cccs3)c1C#N)CC/C2=C/c1cccs1 was read as YopH inh -21, Mtb H37Rv 9%, RecA intein inh -4.5, Arbovirus anti -1 and Mtb betalactam 30.
C1CCN(Cc2nnnn2C2CCCC2)CC1 was read as YopH inh 0, Mtb H37Rv -11%, RecA intein inh -0.4, Arbovirus anti -1 and Mtb betalactam -5.
`O=c1c(C(c2ccc(Cl)cc2)c2c(O)nc3n(c2=O)CCCS3)c(O)nc2n1CCCS2` gave Mtb H37Rv -4%, RecA intein inh -0.8 and Mtb betalactam 5.
Screening CC1CCN(C(=O)Nc2cccc(NC(=O)N3CCC(C)CC3)c2)CC1 returned YopH inh -41, Mtb H37Rv 2%, RecA intein inh 3.8, Arbovirus anti 0 and Mtb betalactam -3.
Screening CN1CCN(C(=O)C2CCN(c3ncc(C(F)(F)F)cc3Cl)CC2)CC1 returned Mtb H37Rv -4%, RecA intein inh 0.6, Arbovirus anti -4 and Mtb betalactam -12.
CC(NCCS(=O)(=O)c1ccc(Cl)cc1)c1cccc(Cl)c1 (stereo unspecified) was read as RecA intein inh 4.0 and Mtb betalactam 4.
For C[C@H](NC(=O)c1[nH]cnc1C(=O)Nc1ccc(CNC(=O)OC(C)(C)C)cc1)C(=O)OCc1ccccc1 the results were Mtb H37Rv 4%, RecA intein inh -0.7 and Mtb betalactam 1.
For C/C(=N\NC(=O)COc1cccc2ccccc12)c1cccs1 the results were RecA intein inh -1.3 and Mtb betalactam 4.
`CC(=O)c1cccc(NC(=O)C2CC(=O)N(CCc3ccccc3)C2)c1` (stereo unspecified) gave Mtb H37Rv -9%, RecA intein inh -0.5, Arbovirus anti 18 and Mtb betalactam 3.
Cc1cccnc1NC(=O)c1ccc2c(c1)OCCO2 was read as RecA intein inh -1.6 and Mtb betalactam -12.

From PubChem BioAssay
